HIV TAR-Tat – HIV-1 TAR-Tat binding disruption; 0.6% of 100,000 active; HIV-1 TAR RNA, Tat peptide displacement FRET; hits give high values; AID 1259389; z-score (concentration not given with the values);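 note: score is relative to mean and SD of negative controls; some compounds called inactive have numbers as strong as hits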
CDC25B-CDK2 inh – human CDC25B-CDK2/CyclinA binding inhibition; AID 1259370; 0.72% of 94,000 active; HTRF CDC25B-CDK2/CyclinA binding, anti-His/anti-Flag; hits give high values; z-score (test concentration not listed);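 note: score is relative to mean and SD of negative controls; strong numbers were not always called active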
* marks the source's active call; other numbers are inactive results; / = not tested or not shown; & = joins results of further samples.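 Rule for the calls: active = z-score from 3 up in half or more of its runs; inactive = the rest.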

nr	SMILES	HIV TAR-Tat	CDC25B-CDK2 inh
1	COc1cccc(N2C(=O)CC(N3CCN(c4ccc(F)cc4)CC3)C2=O)c1 (configuration not stated)	0.94	0.07
2	COc1ccc(Nc2nc3ccccc3nc2NS(=O)(=O)c2ccccc2)cc1OC	1.2	-3.1
3	COc1ccccc1-c1cc(C(F)(F)F)n2ncc(C(=O)OCc3ccco3)c2n1	1.6	0.11
4	Cc1cc(CNC(=O)Nc2ccc(F)cc2F)c(C)n1-c1cccc(Cl)c1	0.65	/
5	O=C1CCS(=O)(=O)N1c1ccc(S(=O)(=O)N2CCN(c3ccc(F)cc3)CC2)cc1	0.19	1.1
6	COc1ccc(S(=O)(=O)N2CCC(CN)CC2)cc1OC	-0.63	-1
7	Cc1csc(NC(=O)CSc2ccc3nnc(-c4ccc(Cl)cc4)n3n2)n1	/	-0.33
8	CCCn1c(CCCO)nc2ccccc21	0.47	-0.53
9	O=S(=O)(NCC(c1ccco1)N1CCOCC1)c1cc(F)ccc1F (configuration not stated)	1.4	/
10	Cc1cc(OC(C)C(=O)Oc2cccc(-n3cnnn3)c2)cc(C)c1Cl (configuration not stated)	-0.78	-0.42
11	Cc1ccc(C)c(OCc2cc(=O)n3oc(C)cc3n2)c1	1.4	-2
12	CN1CCCC(n2nc(Cc3ccc(Cl)cc3)c3ccccc3c2=O)CC1 (configuration not stated)	0.48&1.1	/
13	COc1ccc(CCNc2ccc3nncn3n2)c(OC)c1OC	/	-1.6
14	Cc1oc2ccc(NS(=O)(=O)c3ccc4c5c(cccc35)C(=O)N4)cc2c1C(=O)OC(C)C	1.6	-0.75
15	CC1=C(C(=O)OC2CCCCC2)C(c2ccc(O)cc2)C2=C(CC(C)(C)CC2=O)N1 (configuration not stated)	0.94	-0.39
16	COC(=O)c1ccc(S(=O)(=O)Nc2ccc(N3CCOCC3)cc2)n1C	/	-1.3
17	Cc1ccccc1CC1C(=O)Nc2ccc(Br)cc21 (configuration not stated)	1.6	-0.91
18	COc1cc(NC(c2cccc(Cl)c2)c2nnc(-c3ccccc3)o2)cc(OC)c1 (configuration not stated)	-0.08	-0.32
19	COc1cc2nc(SCC(=O)N(C)C3CCCCC3)n3nc(C)nc3c2cc1OC	/	-1.6
20	Clc1cccc(-n2cc(-c3ccccc3)c3c(NCc4cccnc4)ncnc32)c1	0.78	/
21	CCOC(=O)C1CCCCN1S(=O)(=O)c1ccc2c(c1)NC(=O)CCS2 (configuration not stated)	1	/
22	CCOc1ccc(C2CC(=O)n3c(nc4ccccc43)S2)cc1OC (configuration not stated)	/	-0.73
23	N#Cc1nc(/C=C/c2ccc(F)cc2)oc1NCc1cccnc1	-0.65	-0.55
24	CCCCCCC#Cc1cncc(C(=O)Nc2ccc(F)cc2F)c1	/	0.08
25	CSc1ccc(C(c2c(O)cc(C)n(Cc3ccco3)c2=O)N2CCCCC2)cc1 (configuration not stated)	1.1	/

In a second layout: 6 of the compounds above.
Results follow in this order: HIV TAR-Tat | CDC25B-CDK2 inh
(9) O=S(=O)(NCC(c1ccco1)N1CCOCC1)c1cc(F)ccc1F (configuration not stated)
  1.4 | /
(2) COc1ccc(Nc2nc3ccccc3nc2NS(=O)(=O)c2ccccc2)cc1OC
  1.2 | -3.1
(19) COc1cc2nc(SCC(=O)N(C)C3CCCCC3)n3nc(C)nc3c2cc1OC
  / | -1.6
(11) Cc1ccc(C)c(OCc2cc(=O)n3oc(C)cc3n2)c1
  1.4 | -2
(20) Clc1cccc(-n2cc(-c3ccccc3)c3c(NCc4cccnc4)ncnc32)c1
  0.78 | /
(6) COc1ccc(S(=O)(=O)N2CCC(CN)CC2)cc1OC
  -0.63 | -1

Remaining list, next part.
nr	SMILES	HIV TAR-Tat	CDC25B-CDK2 inh
26	Cc1ccc(-c2cnnc(-n3nc(C)c4c3NC(=O)CC4c3ccc(O)cc3)n2)cc1 (configuration not stated)	0.58	-1.9
27	O=[N+]([O-])CC(c1ccccc1)c1c[nH]c2ccccc12 (configuration not stated)	/	0.53
28	COc1ccc(CCN2C(=O)CSC2c2ccc3c(c2)OCO3)cc1OC (configuration not stated)	1.4	-1.1
29	Cc1cc(Nc2ccccc2)n2nc(-c3ccccc3C)nc2n1	0.99	0.09
30	Cn1cc(Cc2nnc(NC(=O)c3cccc(Br)c3)s2)c2ccccc21	0.51	/
31	CC1CCC(NC(=O)C2(C)Cn3c(ccc3-c3ccco3)C(=O)N2Cc2cccs2)CC1 (configuration not stated)	0.47	/
32	CC(=O)N1c2c(cc(Br)cc2S(=O)(=O)NCC2COc3ccccc3O2)CC1C (configuration not stated)	/	0.24
33	COC(=O)c1sccc1NC(=O)C1CCN(c2ncnc3onc(C)c23)CC1	0.63	/
34	CC1=C(C(=O)OCC2CCCCC2)C(c2ccc(Br)cc2)CC(=O)N1 (configuration not stated)	1.5	1.1
35	O=C(O)CSCC(=O)Nc1nnc(C2CC2)s1	/	-2.4
36	CCOC(=O)c1c(C)n(-c2ccc(OCC)cc2)c2ccc(O)cc12	/	-1.1
37	COC(=O)c1ccc(Oc2nc3c(c(=O)n(C)c(=O)n3C)n2C(C)C)cc1	0.14	1.8
38	COc1ccc(OC)c(NCc2cccn2-c2nnc(N3CCC(C)CC3)s2)c1	1.8	/
39	COC(=O)Cc1[nH]nc2c1C(c1ccc(C(C)(C)C)cc1)C(C#N)=C(N)O2 (configuration not stated)	1.3	-1.9
40	CCOC(=O)c1cnc2c(c(C)nn2C)c1NCc1ccco1	/	-1.8
41	Cc1nc2ncnn2c(C)c1CCC(=O)NCCC1=CCCCC1	0.73	1.4
42	C=C(C)CN1CCN(c2cc(C)nc3c(-c4ccc(F)cc4)c(C)nn23)CC1	0.71	-1.2
43	Cc1ccc(C(=O)COC(=O)CCC(=O)c2ccccc2)cc1[N+](=O)[O-]	/	-0.72
44	Cc1sc2ncn(CC(=O)N3CCCC(C)C3)c(=O)c2c1S(=O)(=O)N1CC(C)CC(C)C1 (configuration not stated)	/	-0.26
45	N#Cc1c(NC(=O)CSc2ncnc3sc4c(c23)CCC4)sc2c1CCC2	/	-0.47
46	Cc1cc([N+](=O)[O-])ccc1N1CCCC1	/	-1.6
47	CCc1nnc2c3ccccc3nc(NCc3ccc(C)cc3)n12	0.18	-0.69
48	CCOC(=O)c1cc(S(=O)(=O)N2CCCC2)cn1C	1.8	-0.66
49	Cc1ccccc1Nc1c(-c2ccncc2)nc2ccc(Br)cn12	/	-4.1
50	CN(Cc1ccccc1)c1ncnc2onc(-c3ccc(Cl)cc3)c12	1.8	1.7
51	O=C(Cn1cc(C(=O)c2ccco2)c2ccccc21)NC1CCCC1	0.18	-0.94
52	CCCCCCC(=O)Nc1cc2nc3[nH]c(=O)n(C4CCCCC4)c(=O)c3nc2cc1C	2.3	-0.85
53	CCc1ccc(-c2cc(C(=O)N3CCN(C)CC3)c3ccccc3n2)cc1	/	-1.4
54	CC1CCN(C(=O)c2oc3ccccc3c2NC(=O)C2CCCCC2)CC1	1.4	/
55	Cc1cc(C)cc(OCCOc2cccc(/C=C3\SC(=S)NC3=O)c2)c1	/	0.89
56	COc1ccc(Br)cc1C1Nc2c(C)cccc2-c2cc(C)nn21 (configuration not stated)	0.32	-0.46
57	Cc1ccc2oc(=O)c3cnn(CC(=O)NC(C)c4ccc5c(c4)OCCO5)c3c2c1 (configuration not stated)	0.73	-0.41
58	CCC(=O)Oc1ccc(C2C3=C(CC(C)(C)CC3=O)NC3=C2C(=O)c2ccccc23)cc1 (configuration not stated)	-0.34	-3.3
59	COc1ccc(Cn2c(CO)cnc2SCc2ccc(Br)cc2)cc1	0.08	/
60	CCc1ccc(C2CC(=O)NC3=C2C(=O)CC(c2cccs2)C3)cc1 (configuration not stated)	0.18	1.6
61	Cc1ccc(-c2cc(Nc3cccc(O)c3)nc(C)n2)cc1	0.1	3.4
62	O=S(=O)(c1ccc(-c2cc(C(F)(F)F)on2)s1)N1CCN(Cc2ccccc2)CC1	2.5	/
63	CCCC12CN3CC(C)(CN(C1)C3c1ccc(O)c(O)c1)C2=O (configuration not stated)	/	-0.64
64	Cc1ccc(N2COc3cc4c(cc3C2)OCO4)cc1	/	-1.8
65	COc1cccc(/C=C/c2nc(C#N)c(NCC3CCCO3)o2)c1 (configuration not stated)	0.26	-0.71
66	CC1=C(C(=O)OCC(C)C)C(c2ccc(Cl)cc2)NC(=O)N1 (configuration not stated)	/	-1.6
67	O=C(C1CCN(S(=O)(=O)c2cccc3nonc23)CC1)N1CCCCCC1	/	-1.4
68	Nc1ccccc1Oc1nc(Cl)nn1Cc1ccc(Cl)cc1	1.3	/
69	O=C1OC(OC(=O)c2ccccc2F)C(N2CCOCC2)=C1Cl (configuration not stated)	/	0.48
70	O=C(N[C@@H](Cc1ccc(O)cc1)C(=O)O)OCc1ccccc1	/	-1.8
71	COc1ccc(Nc2nc(NCC3CCCO3)nc(N)c2[N+](=O)[O-])cc1 (configuration not stated)	1.2	/
72	CC(C)Cc1nc2sc3c(SCC(=O)N4CCOCC4)ncnc3c2c2c1COC(C)(C)C2	-1.5	-1.6
73	c1ccc(-n2ncnc2-c2ccc3c(c2)OCO3)cc1	-0.4	0.17
74	O=C(O)c1cc(-c2ccc(F)cc2)cc2ccccc12	0.97	/
75	CC1(C)OC(=O)C(=Cc2cccn2-c2ccc(C(F)(F)F)cc2)C(=O)O1	/	-2

In another format: entries from further up
Values run as follows: HIV TAR-Tat	CDC25B-CDK2 inh
(69) O=C1OC(OC(=O)c2ccccc2F)C(N2CCOCC2)=C1Cl (configuration not stated)
    /	0.48
(58) CCC(=O)Oc1ccc(C2C3=C(CC(C)(C)CC3=O)NC3=C2C(=O)c2ccccc23)cc1 (configuration not stated)
    -0.34	-3.3
(59) COc1ccc(Cn2c(CO)cnc2SCc2ccc(Br)cc2)cc1
    0.08	/
(63) CCCC12CN3CC(C)(CN(C1)C3c1ccc(O)c(O)c1)C2=O (configuration not stated)
    /	-0.64
(60) CCc1ccc(C2CC(=O)NC3=C2C(=O)CC(c2cccs2)C3)cc1 (configuration not stated)
    0.18	1.6
(73) c1ccc(-n2ncnc2-c2ccc3c(c2)OCO3)cc1
    -0.4	0.17

(cont.)
nr	SMILES	HIV TAR-Tat	CDC25B-CDK2 inh
76	O=C(Nc1ccc(OCc2cc(=O)n3ccsc3n2)cc1)c1cccs1	0.87	0.28
77	Cn1c(=O)n(C)c2cc(C(O)COc3ccc(CNC4CCCCC4)cc3)ccc21 (configuration not stated)	0.23	-1.3
78	CCOc1ccc(S(=O)(=O)Nc2cc(-c3cn4cccc(C)c4n3)ccc2C)cc1	1	-0.58
79	CCCSc1nnc(NC(=O)Cc2coc3cc(C)cc(C)c23)s1	2.9	-3.8
80	O=C(Nc1cccc(Cl)c1)Nc1nc2c(s1)CCCCC2	0.12	/
81	O=C(CC(c1ccccc1)c1ccccc1)Nc1nnc2n1CCCS2	0.47	/
82	COc1c(S(=O)(=O)c2ccccc2)cnc2c(F)cccc12	2.8	-1.3
83	CS(=O)(=O)Nc1cccc(C2=NN(C(=O)c3ccc(F)cc3)C(c3cccs3)C2)c1 (configuration not stated)	/	-1.6
84	CCc1nnc2c3ccccc3nc(Nc3ccc(F)cc3F)n12	-0.24	-1.9
85	CC1(C)CCCC2=C1CC1C(=O)N(c3ccccc3)C(=O)C1C2 (configuration not stated)	1.7	0.34
86	O=C(Cn1ncc2c([nH]c3ccccc32)c1=O)NCCN(Cc1ccco1)C1CCCC1	1.6	/
87	COc1ccc(-c2noc(N3CCc4ccccc4C3)n2)cc1OC	-0.06	/
88	COc1cccc(NS(=O)(=O)c2c(C)nc3scc(C)n3c2=O)c1	0.43	0.52
89	CCCCCC(=O)N1CCCC2(CCCCC2)C1	/	0.72
90	O=C(O)CCCN1Cc2ccccc2C1	1.8	0.06
91	CCOC(=O)C1CCCN(c2cc(NCCOC)c3c4c(onc24)-c2ccccc2C3=O)C1 (configuration not stated)	-0.37	-0.35
92	COc1ccc(CSc2nc3ccncc3n2Cc2cccc(OC)c2)cc1	1.6	-1.9
93	Cc1nnc(NC(=O)CSc2nccn2-c2cccc(Cl)c2)s1	/	0.31
94	O=C(CSc1nc2c(cnn2-c2ccccc2)c(=O)[nH]1)Nc1cccc(Cl)c1	1.7	/
95	CCc1nn2c(=O)cc(COc3ccc(NS(=O)(=O)c4ccc(Cl)cc4)cc3)nc2s1	0.97	-1.1
96	CCC1C(=O)C(C)(C)C(=O)OC1c1ccccc1F (configuration not stated)	/	1.3
97	COc1cccc(C2Nc3c(C)cccc3-c3cc(C)nn32)c1OC (configuration not stated)	0.51	-2
98	Cc1ccccc1NS(=O)(=O)c1c(C)nc2scc(C)n2c1=O	1.2	-2
99	c1ccc(-c2nnc(-c3ccncc3)o2)cc1	0.95	0.42
100	C=CCN1C(=O)c2[nH]nc(-c3cc(C)ccc3O)c2C1c1ccc(F)cc1 (configuration not stated)	-1.9	0.74
101	O=c1c2c(nc3n1CC(O)CS3)-c1ccccc1CC21CCCCC1 (configuration not stated)	/	-3.6
102	Cc1c(C(=O)NC2CCCC2)oc2ccc3c(c12)C(O)CC(C)(C)O3 (configuration not stated)	0.64	-1.1
103	CCc1cccc2c3c([nH]c12)C(CC)(CC(=O)O)OCC3 (configuration not stated)	0.6	-2.6
104	Cc1ccc(N2CC(O)=C(c3nc4ccccc4n3C)C2=N)cc1C	1.1	1.2
105	O=C(Nc1cc(Br)ccc1O)c1noc2c1CCCC2	/	-0.05
106	CC1CCN(S(=O)(=O)c2cn(CC(=O)NC3CCCC3)cn2)CC1	0.09	/
107	CCC(C)NC(=O)c1cnn2c(C)c3c(nc12)CCCC3 (configuration not stated)	/	-0.4
108	COC(=O)CN1C(=O)CSc2ccc(S(=O)(=O)Nc3ccc(Cl)cc3F)cc21	-0.52	/
109	CC1CS(=O)(=O)N(c2ccc(C(=O)Nc3nccs3)cc2)C1=O (configuration not stated)	0.95	-1.1
110	O=C(Nc1ncnc2oc(-c3ccccc3)c(-c3ccccc3)c12)c1ccco1	0.65	-2.2
111	Cc1ccc(-n2c3c(c(SCC(=O)c4ccc5c(c4)OCCO5)nc2=O)CCC3)cc1	0.06	-1.5

Compound activity from PubChem BioAssay.
